Screens: PubChem BioAssay, several laboratories
Bfl-1 A1 inh: inhibitors of the anti-apoptotic protein A1, read as caspase activation; 330,000 tested, 0.066% active; MEF A1-2A-BIM cells, Caspase-Glo 3/7 luminescence, 3 h; percent of clofoctol response, vehicle zero; AID 2462; caspase activation, % (no concentration beside the values);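 active = over half of replicate activation scores above 10%, or exactly half above 10 with the replicate mean above 10; inconclusive = replicate mean below 10 yet half the replicates above 10; inactive = over half of replicates below 10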;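 note: wells of about 30 µL received 50 nL stock; many hits fall short of the cut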
Ecoli rRNA inh: inhibits bacterial ribosomal RNA function over humanized ribosomes | GFP signal change (wild-type ribosome), % (no concentration beside the values) | E. coli WT GFP vs humanized-ribosome RFP mutants, fluorescence, 24 h; hits give low values; DMSO median 0, no signal -100 | AID 720706 | 350,000 tested, 1.6% active;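 active = significant combined selectivity score with lowered wild-type GFP, culture density cut under 30%, mutant RFP and density less affected; inactive = any of these conditions unmet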; note: one replicate is shown; some compounds called inactive have numbers as strong as hits
AF4-AF9 inh: inhibitors of human MLL-AF4/AF9 interaction; 350,000 tested, 0.47% active; AID 651704; inhibition, % at 10 µM; AlphaScreen, biotin-AF4 peptide binding to FLAG-AF9; P42568;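 active = every replicate reaching a set inhibition limit, whatever the replicate mean, cut at about 25% in these data; inconclusive = mean inhibition reaches that limit but some replicates miss it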;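 note: 0% = plate neutral control median and 100% = total signal loss; the record names both 10 and 1 µM as test concentration; the first replicate is given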
Target sequence (P42568 whole entry, looked up): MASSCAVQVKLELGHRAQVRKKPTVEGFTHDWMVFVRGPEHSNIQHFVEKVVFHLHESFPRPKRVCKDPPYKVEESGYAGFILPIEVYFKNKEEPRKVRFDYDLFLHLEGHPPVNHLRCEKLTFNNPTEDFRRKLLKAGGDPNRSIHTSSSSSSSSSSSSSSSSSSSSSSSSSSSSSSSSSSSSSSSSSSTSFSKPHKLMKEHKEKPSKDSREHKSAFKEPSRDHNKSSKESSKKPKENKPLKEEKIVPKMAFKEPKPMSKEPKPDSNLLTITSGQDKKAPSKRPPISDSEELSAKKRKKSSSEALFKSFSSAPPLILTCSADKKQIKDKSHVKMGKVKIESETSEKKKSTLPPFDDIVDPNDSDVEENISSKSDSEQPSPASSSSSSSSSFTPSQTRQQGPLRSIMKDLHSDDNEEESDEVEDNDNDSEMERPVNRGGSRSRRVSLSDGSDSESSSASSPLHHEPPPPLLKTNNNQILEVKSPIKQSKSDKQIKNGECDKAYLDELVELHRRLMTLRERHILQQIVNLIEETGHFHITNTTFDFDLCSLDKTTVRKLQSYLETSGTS
Calb FLC: affects C. albicans growth with fluconazole. C. albicans CaCi-2 (fluconazole-resistant clinical isolate) + fluconazole, Alamar Blue growth, 48 h. growth inhibition, % (no concentration beside the values). 300,000 tested, 0.57% active. AID 1979;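 active = most replicates above 75%; inconclusive = exactly half above 75%; inactive = most below 75%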;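 note: all wells also contain fluconazole at 8 µg/ml as a sub-toxic cotreatment; 0% = median of DMSO wells and 100% = median of geldanamycin control wells; wells of about 8 µL received 7.5 nL stock; the first replicate is given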
Vif TR-FRET: inhibitors of Vif binding to APOBEC3G peptide, primary screen, biochemical, TR-FRET, GST-Vif 1-94, biotin-A3G peptide, dose response retest (AID 1117319); 260,000 tested, 0.57% active; TR-FRET GST-Vif / biotin-A3G peptide binding; higher % means a stronger effect; test concentration not given here; strong numbers were not always called active; one-dose inhibition, %; IC50 in µM for titrated hits;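 active = above the screen mean plus three standard deviations and confirmed in dose response; inconclusive = results disagree or hit not tested in dose response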;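 note: Vif residues 1-94 fused to GST binding biotinylated APOBEC3G peptide 110-148; 0% = full assay without inhibitor and 100% = GST in place of GST-Vif; retest series ran down from 100 µM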
Beta apoptosis: beta cell apoptosis inhibition. INS-1E cytokine-induced death, ATP luminescence, 48 h; percent of positive-control rescue, neutral wells zero. 300,000 tested, 0.8% active. protection from apoptosis, % (no concentration beside the values). AID 435005;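 active = all replicates at 75% or more, or half of them and the mean; inconclusive = half reach 75% but not the mean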;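 note: 0% = cytokine-treated negative control wells and 100% = positive control rescue; higher means more ATP so stronger rescue from cytokine killing; wells of about 40 µL received 100 nL stock; the first replicate is given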
RanGTP-Imp inh: inhibitors of RanGTP-importin-beta interaction, primary screen, biochemical, FRET, CFP-Ran, YFP-importin-beta, homogeneous | cell-free CFP-Ran/YFP-importin-beta FRET ratio | inhibition, % (test concentration not listed) | 300,000 tested, 1.1% active | AID 2216;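 active = most replicates above 15%; inconclusive = exactly half above 15%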;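 note: 0% = DMSO wells and 100% = Ran loaded with GDP instead of GTP; wells of about 40 µL received 100 nL stock; the first replicate is given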
T cruzi inh: blocks replication of Trypanosoma cruzi. T. cruzi beta-gal in NIH3T3, luminescence, 90 h. inhibition, % (no concentration beside the values). 300,000 tested, 1.4% active;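 active = mean inhibition across valid replicates above about 55%, limit read from the data; inconclusive = mean below that limit but half or more replicates reach it; inactive = mean below it, under half of replicates reach it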;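 note: signal also drops with host cell toxicity which is not excluded here; 0% = plate median of DMSO wells and 100% = zero luminescence signal; higher percent means less beta-gal luminescence so fewer parasites; stock transfer was 50 nL into about 50 µL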
Ecoli rRNA inh OD600: further read-out of Ecoli rRNA inh, marked with its call; OD600 change, %; measured here: OD600 growth;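 optical density of the mix in the first replicate; 0 = DMSO median and -100 = no signal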
Ecoli rRNA inh RFP: recorded beside Ecoli rRNA inh, whose call it bears; RFP signal change, %; measured here: RFP humanized mutant strains;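 first replicate; 0 = DMSO median and -100 = no signal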
* hit, by the source's call; ? = inconclusive; . = no result given. Not all compounds are listed; rates above refer to the full screens.

SMILES	Bfl-1 A1 inh	Ecoli rRNA inh	Ecoli rRNA inh OD600	Ecoli rRNA inh RFP	AF4-AF9 inh	Calb FLC	Vif TR-FRET	Beta apoptosis	RanGTP-Imp inh	T cruzi inh
Cc1cc(NC(=O)Cn2nc(C(F)(F)F)c3c2CCCC3)no1	-0.4	.	.	.	.	25	2%	-3	-1.8	6
COc1ccccc1NC(=O)C(O)C(O)C(=O)Nc1ccccc1OC (centres undefined)	2.2	.	.	.	.	6	-2%	-1	11	-4
Cc1cccc(-n2nnc(C(=O)NCc3ccc4c(c3)OCO4)c2N)c1	-1.3	.	.	.	.	-16	-3%	-2	0.4	13
COc1cccc(CN2CCN(Cc3ccc4cccc(F)c4n3)CC2CCO)c1 (centres undefined)	0.2	6	-2	4.1	-3.9	-7	.	.	-2.4	10
S=C(c1ccc(-c2cccc(Cl)c2)o1)N1CCCCC1	-0.2	-29*	-18*	2.1*	19	8	-10%	5	0.6	20
Cc1c(C(=O)N2CCCC2)oc2c1-c1[nH]ncc1CC2	-0.1	4	7	1.8	-26	-6	9%	-4	7.9	3
CCC(=O)c1c[nH]c(C(=O)NCc2ccco2)c1	-1.1	.	.	.	.	-6	-1%	3	2.5	-7
O=C(N/N=C/c1ccc(OC(=O)c2ccccc2Cl)cc1)c1ccc(O)cc1	-1.3	0	4	0.4	-3.3	-17	.	-2	-1.1	9
CCNc1nc(Cl)nc(-c2cn(-c3ccccc3)c3ccccc23)n1	0.5	9	6	0.2	0.4	.	6%	59	-0.9	-25
O=C(CCCCN1CCCCC1)c1ccccc1	1.1	9	2	-0.3	0.5	-8	.	-4	2.0	-18
COc1cc(C(=O)NS(=O)(=O)c2ccccc2C)ccc1Cc1cn(C)c2ccc(NC(=O)OC3CCCC3)cc12	0.7	.	.	.	.	.	-4%	1	-1.1	5
CCOc1ncccc1C(=O)NNC(=O)CSc1ccc(Cl)cc1	0.5	19	10	4.3	-0.8	.	.	-1	.	.
Cc1ccc(S(=O)(=O)N(C)C)cc1NC(=S)NNC(=O)C(N)=O	0.5	5	11	0.2	-1.0	-20	5%	.	-4.3	-16
COc1ccccc1C(=O)NC(CCSC)C(=O)NNC(=O)c1ccccc1C (centres undefined)	0.8	7	5	4.4	-0.1	1	2%	-5	1.5	4
O=C(NCCc1ccccc1)C1CCN(S(=O)(=O)c2cccnc2)CC1	-0.2	-1	-1	-3.3	3.2	-2	3%	-1	11	-7
COCC1CCCN(Cc2cn(-c3ccccc3F)nc2-c2cc(C)sc2C)C1 (centres undefined)	-0.2	1	0	11	-3.5	17	13%	8	6.2	26
CCOc1ccc(S(=O)(=O)N(CC)CC(=O)NCc2cccnc2)cc1C	1.1	2	1	3.4	-1.7	-5	.	-5	1.9	-9
CCn1ccnc1CN1CCc2c([nH]c3ccccc23)C1CC(C)C (centres undefined)	0.4	-48	-78	-12	15	25	4%	-5	6.2	41
COc1cc2c(cc1OC)CN(CC(=O)Nc1ccc(F)cc1)CC2	-1.2	4	9	-2.1	1.8	-7	-5%	-5	17*	-1
O=C(Nc1ccc2nc(C3CC3)n(Cc3ccccc3)c(=O)c2c1)C1CC1	-6.0	10	4	-0.1	2.9	-6	9%	0	0.1	15
Cc1ccc(OCC(=O)Nc2cc(C(=O)O)cc(C(=O)O)c2)cc1C	-3.7	13	22	2.2	-3.4	-3	-6%	-7	-1.5	-9
CCc1cc2c(=O)n(Cc3ccco3)c(SCC(=O)NC3CCS(=O)(=O)C3)nc2s1 (centres undefined)	0.1	2	-3	-1.5	-3.5	13	.	10	2.1	11
CCOC(=O)c1nc2c(ccc3ccccc32)cc1C	0.7	-31*	-23*	5.0*	-1.0	-2	3%	4	4.5	12
COc1ccc(CCCC(=O)Nc2ccc(F)cc2)cc1	-0.8	3	8	0.4	-31	8	-9%	0	1.5	5
CCOC(=O)c1cc(-c2ccc(C#N)cc2)nc2c1c(C)nn2CCC#N	0.9	.	.	.	.	5	-2%	8	-2.0	12
N#Cc1cnc2cc(-c3ccccc3)nn2c1N	-7.6	10	27	0.0	-3.3	-6	-39%	5	0.2	-13
C=C(C)c1cccc(C(C)(C)NC(=O)Nc2ccc(OC)cc2)c1	0.1	7	3	-0.6	-2.8	-6	.	-2	4.7	-7
CCC(=O)N1CCc2cc(S(=O)(=O)NCCC(=O)Nc3ccccc3C)ccc21	0.2	.	.	.	.	-14	-5%	-6	0.5	-7
NC(=O)CNC(=O)c1cccc(Cl)c1	0.6	6	0	-2.0	0.5	-7	-5%	-4	-2.2	-12
CSc1ncc(Cl)c(C(=O)Nc2c(C)cccc2C)n1	0.5	7	11	-2.3	-1.8	3	-6%	-9	-1.0	-12
COCC(=O)NC1CCN(C(=O)NCc2ccccc2)CC1	-0.2	.	.	.	.	-5	0%	.	-1.3	2
CC1CCN(CCNC(=S)Nc2ccc(Cl)cc2)CC1	1.3	11	-9	5.0	-1.6	-14	-5%	-3	1.7	4
O=C(Nc1ccccc1C(=O)O)c1cccc(NC(=O)c2ccccc2Br)c1	-0.4	-33	-45	-2.7	1.7	0	.	.	-2.7	-7
O=C(CN1CCCCC1)NNc1nc(-c2ccccc2)c2cc(Cl)ccc2n1	-0.3	-4	-14	4.5	0.0	?	3%	3	1.1	52
Cc1cc(/C=N/Nc2nc(N)ncc2[N+](=O)[O-])c(C)n1-c1cccc(C(F)(F)F)c1	-2.4	.	.	.	.	3	9%	22	3.4	-7
CCCc1ncc(C(O)c2ccc(OC)cc2)n1C (centres undefined)	-0.2	.	.	.	.	-10	-1%	4	6.5	-4
CCN(CC)S(=O)(=O)c1ccc(NC(=O)Nc2cccc(C(F)(F)F)c2)cc1	0.0	.	.	.	.	-1	4%	98*	?	76*
N#Cc1ccc(CSc2nnc(NC(=O)c3ccc4ncsc4c3)s2)cc1	-1.3	6	10	0.8	18	-26	-28%	-8	2.0	4
CC(C)=CC(=O)Nc1nnc(-c2ccccc2C)s1	-1.5	13	17	1.5	-2.1	0	6%	1	2.5	-4
Cc1ccc(CS(=O)(=O)c2cn(CC(=O)Nc3ccon3)c3ccccc23)cc1	0.7	-15	-20	1.4	-1.7	-6	-1%	0	-2.8	2
COc1ccccc1NC(=O)Nc1ccc(F)c(F)c1	-7.5	-1	1	-1.4	-2.7	-45	-4%	7	?	-10
CN(C)CCN(C(=O)C1=COCCO1)c1nc2ccc(Cl)cc2s1	0.1	3	-2	-2.0	1.5	-4	.	2	5.7	42
O=[N+]([O-])c1ccc(CCNc2cccc3ccccc23)c([N+](=O)[O-])c1	-0.7	-2	-20	-6.7	2.1	20	.	13	-1.4	36
COc1ccc(CNC(=O)c2cc(-c3cccs3)on2)cc1	.	.	.	.	.	6	15%	.	5.3	21
Cc1cccc(NS(=O)(=O)c2cccc(C(=O)N3CCCC3)c2)c1	0.4	5	2	1.2	-1.9	2	5%	1	1.9	-5
Cc1cc(C)cc(N(CC(=O)Nc2cc(C)ccc2C)S(=O)(=O)c2c(C)[nH]c(=O)[nH]c2=O)c1	.	-11	-14	3.5	-7.7	2	.	.	-2.3	-10
Cc1ccc(-n2ccnc(SCC(=O)NC3CCCCC3)c2=O)cc1F	0.2	0	6	0.3	1.6	8	-8%	-20	-2.3	-13
COc1cccc(CN(C)C(=S)Nc2cccc(C)c2)c1	-0.5	-5	-7	-2.6	-2.7	23	-5%	-10	-1.3	-6
c1ccc(CSc2nnc3ccc(-c4ccncc4)nn23)cc1	0.6	0	-8	0.5	-31	-1	?	3	-1.4	-8
CCCN(CCC)CCCNC(=O)Cn1cnc2sc(C)c(S(=O)(=O)N3CCC(C)CC3)c2c1=O	0.3	3	-2	1.3	3.8	-19	-1%	-4	0.8	-20
CCOC(=O)C1(CCOC)CCN(C(C)CCc2ccc(OC)cc2)CC1 (centres undefined)	-0.8	11	-2	-7.3	-2.1	4	.	1	3.8	17
COc1cccc2c(SCC(=O)N/N=C/c3ccc(O)c(O)c3)cc(C)nc12	-0.6	-18	-9	-8.0	6.0	92*	1%	4	6.6	-29
CN(CC(=O)Nc1ccccc1Cl)C(=O)Cn1cc(C(F)(F)F)cc(Cl)c1=O	-0.1	8	5	-0.3	0.9	1	48%	2	0.3	-2
Cc1cccc(OCCOC(=O)Nc2ccccc2)c1	-0.4	1	-5	-1.0	-0.3	2	-8%	-3	3.0	-13
O=C(NCc1ccccc1)c1ccc(CN(c2ccccn2)S(=O)(=O)c2ccccc2)cc1	-0.4	.	.	.	.	2	-10%	4	-0.9	-7
O=C(Nc1ccccc1C(=O)NCCc1ccccc1)c1cnccn1	-1.0	8	12	-0.4	-0.5	1	.	0	-1.4	-1
O=C(NC1CCSC1)c1cccc(Cl)c1 (centres undefined)	0.6	1	3	-4.3	-1.9	0	.	-3	-3.2	1
CC(=O)NC1=NN(C(C)=O)C(C)(c2ccco2)S1 (centres undefined)	-0.1	16	8	2.8	-1.1	-8	-6%	1	-1.6	-6
O=c1[nH]c(C2CCN(S(=O)(=O)/C=C/c3ccccc3)CC2)nc2c1nnn2Cc1ccc(F)cc1	1.2	4	1	12	-17	4	.	6	0.3	23
CC(C)(C#CCN1CCCC1)OCCC#N	1.3	.	.	.	.	1	-7%	-1	-0.9	3

Other entries follow:
SMILES	Bfl-1 A1 inh	Ecoli rRNA inh	Ecoli rRNA inh OD600	Ecoli rRNA inh RFP	AF4-AF9 inh	Calb FLC	Vif TR-FRET	Beta apoptosis	RanGTP-Imp inh	T cruzi inh
CCOC(=O)c1sc2nc(C)c3c(c2c1N)CC(C)(C)OC3	0.5	9	5	1.5	.	2	-7%	-6	5.5	5
CC(C)CNC(=O)c1cccc(NC(=O)COc2cccc([N+](=O)[O-])c2)c1	-0.3	4	3	0.2	2.4	-21	13%	-9	2.6	-10
O=C(c1cccs1)C1C(c2ccc(Br)cc2)NC(=S)NC1(O)C(F)(F)F (centres undefined)	-1.9	.	.	.	.	8	.	0	2.1	-25
O=[N+]([O-])c1c(NCc2ccccc2)cc(N2CCc3ccccc3C2)c2nonc12	-0.2	9	5	-2.5	-5.5	-1	.	17	-7.4	7
CC(C)COc1ccc(CSCCNC(=S)Nc2ccccc2)cc1	-1.1	.	.	.	.	-17	0%	.	1.2	29
O=C(Cc1cccs1)N(CC1CCCO1)C1(C(=O)NC2CCCCC2)CCCCC1 (centres undefined)	0.5	.	.	.	-1.6	0	9%	-6	8.8	12
